# TRPV1 PAM: human TRPV1 potentiation; Q8NER1; potentiation, % at 8.33 µM; TRPV1-expressing cells, Fluo-8 calcium influx, capsaicin EC20 potentiation; host cell line not named in the record; control for the full effect not named in the record; hit rate 0.02% among 320,000; active means potentiation above 80%; inconclusive means 30% to 80%; inactive means below 30%; further: 0% is about no effect
# Target sequence (Q8NER1 whole entry, looked up): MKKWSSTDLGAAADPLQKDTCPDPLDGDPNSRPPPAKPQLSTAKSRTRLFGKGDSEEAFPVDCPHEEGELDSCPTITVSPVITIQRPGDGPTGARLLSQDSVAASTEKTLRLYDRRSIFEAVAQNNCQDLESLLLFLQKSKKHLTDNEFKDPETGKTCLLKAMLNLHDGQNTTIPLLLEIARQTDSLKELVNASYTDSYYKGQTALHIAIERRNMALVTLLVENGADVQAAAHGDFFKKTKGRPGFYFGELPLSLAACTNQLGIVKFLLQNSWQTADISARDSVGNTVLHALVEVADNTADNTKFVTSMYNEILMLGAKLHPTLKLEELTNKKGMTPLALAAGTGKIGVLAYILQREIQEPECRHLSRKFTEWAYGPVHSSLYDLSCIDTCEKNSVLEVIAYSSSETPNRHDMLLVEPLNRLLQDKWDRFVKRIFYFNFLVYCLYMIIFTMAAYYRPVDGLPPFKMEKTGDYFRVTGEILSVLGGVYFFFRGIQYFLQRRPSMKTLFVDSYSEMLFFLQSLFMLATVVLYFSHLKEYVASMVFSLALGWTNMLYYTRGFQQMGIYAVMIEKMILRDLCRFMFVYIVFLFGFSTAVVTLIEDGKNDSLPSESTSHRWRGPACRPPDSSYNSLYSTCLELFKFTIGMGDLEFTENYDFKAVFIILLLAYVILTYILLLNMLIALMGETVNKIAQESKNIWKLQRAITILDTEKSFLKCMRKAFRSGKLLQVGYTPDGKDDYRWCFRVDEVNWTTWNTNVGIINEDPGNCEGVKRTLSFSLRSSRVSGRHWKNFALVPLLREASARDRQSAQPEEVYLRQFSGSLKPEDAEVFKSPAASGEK
#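 Fluo-8 calcium influx in TRPV1-expressing cells, kinetic read (ex 480/em 520 nm). Compound added and read 3 min for agonist activity, followed by capsaicin at EC20 final and 2 min further read for enhancement.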
# TRPML1 inh: human mucolipin-1 channel inhibition | Q9GZU1 | TRPML1-inducible cells, Ca2+ dye fluorescence, FDSS; stronger effect = lower value; inhibition of EC80 agonist-evoked calcium signal | activity change, negative = inhibition, % (concentration not given with the values) | hit rate 0.02% among 390,000; in the data active means activity change below about -50%; inconclusive means about -30% to -50%; inactive means above about -30%;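 further: stimulus is agonist 54-4 at its EC80 concentration; on the % scale 0 is the no-effect control and ±100 the full control effect; compound concentration not given in the record; the text of the record puts the active cut at -80%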
#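 TRPML1-DL cells, Tet-induced overnight (~16 h, 37 °C) at 1,500 cells/well, were loaded with Ca8 no-wash dye plus quencher for 45-90 min at room temperature. Compounds were pinned during FDSS kinetic reading; agonist 54-4 at EC80 (4 uM final) then added.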
# CtBP-E1A blk: inhibitors of CtBP/E1A interaction | hit rate 0.49% among 340,000 | activity change, % (test concentration not listed) | AlphaScreen GST-E1A/His-CtBP binding, 1536-well; stronger effect = lower value; control for the full effect not named in the record; in the data active means activity change below about -65%; inconclusive means about -30% to -65%; inactive means above about -30%; further: on the % scale 0 is the no-effect control and ±100 the full control effect; compound concentration not given in the record
#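 GST-E1A and His-tagged CtBP (125 nM each as 5X stock) were preincubated with pin-transferred compound for 2 h at 37 °C in the dark, then glutathione donor and nickel acceptor beads were added for 1 h before AlphaScreen reading.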
# Six1-Eya2 blk: inhibitors of human Six1/Eya2 interaction | Q15475+O00167 | AlphaScreen GST-Six1/His-Eya2 binding, biochemical; stronger effect = lower value; control for the full effect not named in the record | activity change, % (concentration not given with the values) | hit rate 0.56% among 360,000 | AID 651725; in the data active = activity change below about -65%; inconclusive = about -30% to -65%; inactive = above about -30%; further: on the % scale 0 is the no-effect control and ±100 the full control effect
#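 Compounds are tested against tagged Six1 and Eya2 proteins bridged by glutathione donor and nickel acceptor beads; after a one-hour incubation at 37 °C without light, AlphaScreen emission is recorded.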
# D2 potentiator: human D2 receptor positive allosteric modulation; potentiation, % (test concentration not listed); P14416; DiscoveRx D2 beta-arrestin cells, luminescence, 90 min; 100% = 57 uM dopamine signal; AID 624464; hit rate 0.23% among 360,000; active = potentiation of 50% or more; inconclusive = 30% to 50%; inactive = 30% or less;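 further: compound concentration not given in the record; tested on top of an EC20 dose of dopamine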
#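 PathHunter beta-arrestin assay in DiscoveRx D2 cells. Compounds were added with an EC20 of dopamine (50 nM final) for 90 min at 37 deg C. Luminescence was read 1 h after detection reagent, with 57 uM dopamine as the EC100 control.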
# TRPML1 ag: activates the human TRPML1 channel; hit rate 0.12% among 410,000; activation, % (concentration not given with the values); TRPML1-expressing cells, Ca2+ dye fluorescence, FDSS; host cell line not named in the record; reference of the full effect not given here; AID 624414; Q9GZU1; in the data active = activation above about 50%; inconclusive = about 30% to 50%; inactive = below about 30%; further: 0% is about no effect; the text of the record puts the active cut at 80%
#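 Tet-induced TRPML1-DL cells, 1,500 per well, cultured overnight, were loaded with a no-wash Ca2+ dye for 45–90 min. Calcium fluorescence was recorded on the FDSS for 110 s after compound addition, before the EC80 agonist (4 uM 54-4) was added.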
# Numbers without * were called inactive; ? = inconclusive; / = not tested or not shown; & = joins results of further samples. Not a hit list (roughly 0.95% active in at least one column).
SMILES,TRPV1 PAM,TRPML1 inh,CtBP-E1A blk,Six1-Eya2 blk,D2 potentiator,TRPML1 ag
O=C1CCC(C(=O)OCc2c(Cl)cccc2Cl)N1 (centres undefined),-1,3,9,2,-14,0.2
COc1cc(CN2CCNC(=O)C2CC(=O)NCc2csc(C(C)C)n2)cc(OC)c1 (centres undefined),7,-8,4,1,-7,-0.7
COc1ccccc1CCN1CCCC(CN(C)Cc2ccc(OCCO)cc2)C1 (centres undefined),8,-3,/,8,-61,0.0
CCCCNc1nnc(SCC(=O)c2c(N)n(CCC)c(=O)[nH]c2=O)s1,6,-12,/,-4,-9,-0.8
Cc1cc(C)cc(-n2ncc3c2CCCC3NC(=O)c2csnn2)c1 (centres undefined),-9,-1,-1,-2,0,0.3
Cc1cc(N2CCCC2=O)ccc1S(=O)(=O)N1CCOCC1,2,-5,-5,-13,-3,-0.8
Cn1cc([N+](=O)[O-])c(C(=O)NC2CCCC2)n1,2,3,6,2,-12,1.1
COc1cccc(COc2ccccc2C2Nc3ccc(Br)cc3C(=O)N2NC(=O)c2ccncc2)c1 (centres undefined),5,5,19,-8,2,-1.3
Cc1ccc(Cl)cc1NC(=O)C(=O)N1CCCCC1,-2,1,/,-3,-9,0.2
N/C(=N\OC(=O)C1CC1)c1ccc([N+](=O)[O-])s1,0,-6,6,-4,5,0.0
Cc1cccc(-c2noc(CN(C)C(=O)c3ccoc3C)n2)c1,0,7,-2,-2,1,0.0
CCOC(=O)c1ccc(NC(=O)Cn2c(-c3nonc3N)nc3ccccc32)cc1,9,19,/,-3,-6,1.2
O=C(/C=C/c1ccc(O)c(O)c1)OC1C(O)CC(OC(=O)/C=C/c2ccc(O)c(O)c2)(C(=O)O)CC1O (centres undefined),6,13,6,-16,1,-1.8
CC1CCN(c2c(NCc3ccc(C(=O)NCC4COc5ccccc5O4)cc3)c(=O)c2=O)CC1 (centres undefined),/,-13,-3,-20,-6,-0.8
CC(C)(C)c1ccc(OCCC(=O)NCCc2ccc(S(N)(=O)=O)cc2)cc1,1,-19,-2,-8,-6,0.4
CCC(C)c1ccccc1NC(=O)C(C)N(C)Cc1cccc(OC)c1 (centres undefined),-18,0,13,14,-3,-0.4
CCOC(=O)C1=CCN(S(=O)(=O)c2ccc(C)cc2)C1c1ccccc1F (centres undefined),/,20,-8,6,-3,1.8
COc1ccc(Cl)cc1C(=O)OCC(=O)Nc1sccc1C(N)=O,/,7,9,-13,-9,0.7
CC1(O)c2ccccc2C(=O)N1Cc1ccccc1 (centres undefined),-2,3,-1,11,19,0.8
CC(C)(C)OC(=O)N1CCCC(C(=O)Nc2cccc(C(=O)NCCCc3ccccc3)c2)C1 (centres undefined),/,-9,-1,-2,1,-1.3
Nc1nc(CN2CCN(c3ccccc3F)CC2)nc(N2CCCc3ccccc32)n1,0,-9,1,-2,13,0.1
O=c1[nH]c(-c2ccncc2)nc2ccccc12,-5,-6,-8,0,1,3.4
Cc1cc(C)c2cc(CN(Cc3ccc4c(c3)OCO4)Cc3nnnn3Cc3ccco3)c(=O)[nH]c2c1,13,2,2,-9,-16,1.5
CN(C1CC(C)(C)NC(C)(C)C1)S(=O)(=O)CC12CCC(CC1=O)C2(C)C (centres undefined),-2,12,11,5,1,0.1
COc1ccc(OC)c(C2=NOC(C(=O)Nc3c(C)n(C)n(-c4ccccc4)c3=O)C2)c1 (centres undefined),-16,8,2,3,-5,-0.3

# Some of these compounds in order of SMILES length, smallest number first.
SMILES,TRPV1 PAM,TRPML1 inh,CtBP-E1A blk,Six1-Eya2 blk,D2 potentiator,TRPML1 ag
CC1(O)c2ccccc2C(=O)N1Cc1ccccc1 (centres undefined),-2,3,-1,11,19,0.8
COc1ccccc1CCN1CCCC(CN(C)Cc2ccc(OCCO)cc2)C1 (centres undefined),8,-3,/,8,-61,0.0
Nc1nc(CN2CCN(c3ccccc3F)CC2)nc(N2CCCc3ccccc32)n1,0,-9,1,-2,13,0.1
COc1cc(CN2CCNC(=O)C2CC(=O)NCc2csc(C(C)C)n2)cc(OC)c1 (centres undefined),7,-8,4,1,-7,-0.7

# The listing picks up; the 6 compounds before the break are reprinted first.
SMILES,TRPV1 PAM,TRPML1 inh,CtBP-E1A blk,Six1-Eya2 blk,D2 potentiator,TRPML1 ag
CC(C)(C)OC(=O)N1CCCC(C(=O)Nc2cccc(C(=O)NCCCc3ccccc3)c2)C1 (centres undefined),/,-9,-1,-2,1,-1.3
Nc1nc(CN2CCN(c3ccccc3F)CC2)nc(N2CCCc3ccccc32)n1,0,-9,1,-2,13,0.1
O=c1[nH]c(-c2ccncc2)nc2ccccc12,-5,-6,-8,0,1,3.4
Cc1cc(C)c2cc(CN(Cc3ccc4c(c3)OCO4)Cc3nnnn3Cc3ccco3)c(=O)[nH]c2c1,13,2,2,-9,-16,1.5
CN(C1CC(C)(C)NC(C)(C)C1)S(=O)(=O)CC12CCC(CC1=O)C2(C)C (centres undefined),-2,12,11,5,1,0.1
COc1ccc(OC)c(C2=NOC(C(=O)Nc3c(C)n(C)n(-c4ccccc4)c3=O)C2)c1 (centres undefined),-16,8,2,3,-5,-0.3
COC(=O)/C=C1/SC(=NC(=O)c2ccc(F)cc2)NC1=O,4,14,2,1,-7,0.3
NC(=O)c1ccccc1NC(=O)COc1ccc(Cl)cc1,-8,-25,/,1,9,1.3
COc1cccc(NC(=O)CN(C)C(=O)c2ccc(N3CCOCC3)c([N+](=O)[O-])c2)c1,7,19,-12,2,3,0.5
Cc1ccc(C(=O)N(CC(=O)NC2CCCC2)c2ccc(F)cc2)s1,-12,13,-21,-2,-2,-1.1
CCCCCCCCN1[C@@H](CC(=O)O)c2ccc(C(F)(F)F)cc2S1(=O)=O,/,-10,9,3,-14,-0.4&2.4
CCCCNC(=O)C1(C)CCN1Cc1ccc(C#N)cc1 (centres undefined),/,/,0,16,-5,-0.4
O=C(CCC(=O)Nc1ccccc1)NNS(=O)(=O)c1ccc(Cl)cc1,9,9,0,8,-5,-0.8
NC(=O)C1(Nc2ccc(C(=O)O)cc2)CCCC1,/,11,9,5,-14,0.2
CN1CCN(CC(=O)n2c3c(c4ccccc42)CCCC3)CC1,14,-6,-11,-5,-3,0.5
C/C(=N\O)c1sc(-c2ccccc2)nc1C,2,-8,/,-1,-7,0.3
CCOC(=O)c1c(NC(=O)COC(=O)c2ccncc2)sc(C)c1C,2,-13,1,17,0,0.2
O=C(CNS(=O)(=O)c1cccc(Cl)c1)Nc1ccc(-c2nc3ccccc3s2)cc1,23,-7,-2,1,-22,1.5
O=C(O)CC1(CC(=O)Nc2ccc(Br)cc2)CCCCC1,19,6,-7,9,-3,1.1
Cc1ccc(OCCC(=O)N(CCC(C)C)c2c(N)n(Cc3ccccc3)c(=O)[nH]c2=O)cc1,-2,5,13,2,-17,0.3
Cc1cc(C)nc(SCc2ccc(C(=O)N/N=C/c3ccccn3)cc2)n1,0,17,-2,?,0,0.1
Cc1cccc(C(=O)C2CCN(S(=O)(=O)c3ccc(C(=O)O)cc3)CC2)c1,13,1,4,-6,-1,-0.6
C=CCN1CCN(C(c2ccc(Cl)cc2)c2nnnn2CCc2ccc(OC)c(OC)c2)CC1 (centres undefined),-2,-25,-2,0,-28,3.6
COc1ccc(CNC(=O)CC[C@H]2O[C@@H](n3cc(C)c(=O)[nH]c3=O)C[C@@H]2O)cc1,/,16,2,6,-6,-0.1
O=C(NCc1ccncc1)c1ccc(Cn2cc(C(F)(F)F)ccc2=O)cc1,/,8,-5,5,-9,-0.6
COc1ccc(CSC2=NCCN2)cc1Cl,-10,69,-21,?,4,-0.2
CCOC(=O)/C(C#N)=C/C1=C(N2CCCC2)CC(C)(C)OC1,3,5,0,-5,-6,0.0
C=CCn1c(SCC(=O)Nc2ccc(F)cc2)nnc1-c1cnccn1,-17,2,-24,1,-9,0.1
Oc1ccccc1-c1nnco1,/,37,2,-17,-12,-0.2
CCC(=O)Nc1ccc(/C=C(\C(C)=O)C(=O)c2ccccc2)cc1,1,-2,-11,-7,-7,-0.9
Cc1cccc(-c2nnc3sc(-c4ccccc4C)nn23)c1,-10,77,-2,-15,-7,7.1

# An excerpt from above in order of the Six1-Eya2 blk value, falling:
SMILES	TRPML1 inh	CtBP-E1A blk	Six1-Eya2 blk	D2 potentiator
COc1ccc(CNC(=O)CC[C@H]2O[C@@H](n3cc(C)c(=O)[nH]c3=O)C[C@@H]2O)cc1	16	2	6	-6
Cc1ccc(C(=O)N(CC(=O)NC2CCCC2)c2ccc(F)cc2)s1	13	-21	-2	-2
CCC(=O)Nc1ccc(/C=C(\C(C)=O)C(=O)c2ccccc2)cc1	-2	-11	-7	-7

# Next part.
SMILES,TRPV1 PAM,TRPML1 inh,CtBP-E1A blk,Six1-Eya2 blk,D2 potentiator,TRPML1 ag
COc1ccc(C2/C(=C(/O)c3ccccc3)C(=O)C(=O)N2CC(C)O)c(OC)c1 (centres undefined),-3,-8,-7,3,-8,1.3
COc1ccc(NC(=O)N(C)C[C@H]2Oc3ccc(NC(=O)c4ccncc4)cc3C(=O)N([C@H](C)CO)C[C@@H]2C)cc1,/,3,-21,0,-9,-0.3
CC1(C)OC1(C#N)c1ccccc1 (centres undefined),/,20,0,1,-2,0.4
CCOC(=O)C1=C(SCC(=O)Nc2ccccc2)NC(=O)C(C#N)C12CCCCC2 (centres undefined),-13,12,4,-29,-3,-0.3
CC(C)c1ccc(C2OCCCO2)cc1,/,-10,-3,12,-3,-0.1
CCCN(CC(=O)Nc1ccccc1OC)C(=O)c1cc2ccccc2o1,0,-6,0,-1,10,0.9
C=CCOc1ccccc1CNCc1cccnc1,-4,16,2,3,-24,-0.2
COc1ccc(C(=O)NCCCN2CCCC2=O)cc1,22,-6,1,3,0,-0.3
CC(=O)Nc1ccc(NC(=O)C(C)OC(=O)c2ccc3[nH]c(C)c(C)c3c2)cc1 (centres undefined),20,5,-17,-6,-1,0.7
CCC1CCc2sc(C(=O)OCC(=O)N(CCOC)c3c(N)n(Cc4ccccc4)c(=O)[nH]c3=O)cc2C1 (centres undefined),-8,6,4,-7,0,0.6
C[C@H](NC(=O)C1CCN(S(=O)(=O)c2ccccc2)CC1)C(=O)NCc1ccc(Cl)cc1Cl,-23,-2,-11,1,3,0.4
COc1cc(CN2CCc3c([nH]c4ccccc34)C2)cc(OC)c1,-12,10,-8,-21,-16,-0.2
CN(C)C(=O)C1OC(C)(C)OC1C(=O)N(C)C (centres undefined),-1,2,9,0,1,-0.1
